# FPR ligand = human FPR ligands by binding competition, primary screen, cell-based, FPRL1 counter-screen, flow cytometry. fMet-Leu-Phe receptor (Homo sapiens), P21462. FPR-expressing cells, fluorescent ligand binding. inhibition, %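 (tested at 6.7 µM)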. actives 0.74% (n = 24,000). AID 440, 2006;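 also: 0% = buffer wells and 100% = receptor blocker peptide wells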
# Target sequence (P21462 whole entry, looked up): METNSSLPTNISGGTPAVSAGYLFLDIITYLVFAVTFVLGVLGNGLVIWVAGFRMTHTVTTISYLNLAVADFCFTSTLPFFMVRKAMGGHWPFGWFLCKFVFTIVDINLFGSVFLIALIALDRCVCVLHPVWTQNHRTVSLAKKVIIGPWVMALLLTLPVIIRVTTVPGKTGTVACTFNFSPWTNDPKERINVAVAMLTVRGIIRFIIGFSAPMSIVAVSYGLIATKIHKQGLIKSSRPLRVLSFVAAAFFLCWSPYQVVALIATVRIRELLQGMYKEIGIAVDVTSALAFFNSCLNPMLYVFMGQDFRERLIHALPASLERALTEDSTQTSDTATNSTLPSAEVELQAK
# VCAM-1 inhibition = inhibitors of TNFa-induced VCAM-1 surface display, cell-based, plate reader, pooled HUVEC, TNFa stimulus (AID 454); HUVEC TNFa-induced VCAM-1 surface immunofluorescence, plate reader; numbers were filed only for top-ranked candidate wells; actives 0.2% (n = 10,000); inhibition, % at 5 µM;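 active = compound among top-ranked inhibitors of TNF-induced VCAM-1 adhesion protein staining, with the hit upheld by image or statistical review; inactive = the rest, including hits rejected on review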;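 also: 0% = TNFa with vehicle and 100% = cells without TNFa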
# VCAM-1 down imaging = inhibitors of TNFa-induced VCAM-1 surface display, imaging, high-content imaging, pooled HUVEC, TNFa stimulus (AID 456). one-dose inhibition, % at 5 µM; IC50 in µM for titrated hits. HUVEC TNFa-induced VCAM-1 surface expression, immunofluorescence imaging; numbers were filed only for top-ranked candidate wells. actives 0.2% (n = 10,000);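 active = top tenth filtered wells with inhibition above zero that passed visual or statistical confirmation; inactive = the rest, including hits rejected on review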;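 also: 0% = stimulated vehicle wells and 100% = unstimulated cells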
# FPRL1 ligand = human FPRL1 ligands by binding competition, primary screen, cell-based, FPR counter-screen, flow cytometry | N-formyl peptide receptor 2 (Homo sapiens), P25090 | FPRL1-expressing cells, fluorescent ligand binding inhibition | inhibition, %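 (tested at 6.7 µM)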 | actives 0.3% (n = 24,000);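 also: 0% = buffer alone and 100% = receptor blocker peptide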
# Target sequence (P25090 whole entry, looked up): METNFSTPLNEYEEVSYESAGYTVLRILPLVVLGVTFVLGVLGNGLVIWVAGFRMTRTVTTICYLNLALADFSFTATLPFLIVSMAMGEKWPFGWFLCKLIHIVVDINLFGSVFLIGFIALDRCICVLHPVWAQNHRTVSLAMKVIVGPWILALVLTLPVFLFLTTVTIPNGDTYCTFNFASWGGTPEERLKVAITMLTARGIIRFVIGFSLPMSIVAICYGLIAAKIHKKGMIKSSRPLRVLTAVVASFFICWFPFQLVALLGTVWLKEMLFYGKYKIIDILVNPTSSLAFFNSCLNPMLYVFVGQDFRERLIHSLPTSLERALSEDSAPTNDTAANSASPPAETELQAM
# VCAM-1 up imaging = enhancers of VCAM-1 display on endothelial cells, imaging, high-content imaging, pooled HUVEC, TNFa stimulus (AID 457); calls only; Pooled HUVEC, TNFa-induced VCAM-1 immunofluorescence imaging; hits of this screen are not shown here; actives 0.2% (n = 10,000);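 active = a top-ranked rise in VCAM-1 staining upheld on image or statistical review; inactive = the rest, including candidates rejected on review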;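 also: compounds tested at 5 µM in the well; cells exposed to compound for 24 hours before fixing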
# Numbers without * were called inactive; i = inactive; . = no result given.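 The calls were made as follows, unless noted: active = mean above 30%; inconclusive = self-fluorescent; inactive = the rest.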 An excerpt (hit frequency here may not be typical).
Compound	VCAM-1 inhibition	VCAM-1 up imaging	FPRL1 ligand	FPR ligand	VCAM-1 down imaging
COc1ccccc1N=c1oc2cc(O)ccc2cc1C(N)=O	.	.	0.1	-9.3	.
O=C(Nc1ccc2snnc2c1)N1CCSCC1	i	i	-6.9	-2.7	i
COc1cccc(-c2nc(CS(=O)(=O)CC(=O)N3CCc4ccccc4C3)c(C)o2)c1	i	i	-9.4	2.4	i
Cc1nnc2ccc(N3CCC4(CC3)OCCO4)nn12	i	i	5.2	-0.6	i
COc1ccccc1NC(=O)c1nc[nH]c1C(=O)Nc1ccccc1OC	.	.	4.7	-3.5	.
O=C1OC(N2CCN(c3ccccn3)CC2)c2ccccc21 (stereo unspecified)	i	i	2.2	2.0	i
CC12CC(NC(=O)N1c1cccc(C(=O)N3CCN(c4ccccn4)CC3)c1)c1ccccc1O2 (stereo unspecified)	.	.	3.8	-0.1	.
Cn1c(=O)c2c(nc(CN3CCN(Cc4ccccc4)CC3)n2Cc2cccc(Cl)c2)n(C)c1=O	71.0	i	2.1	12.7	74.0%
O=C(c1ccccc1Nc1ccc(SC(F)F)cc1)N1CCCCCC1	.	.	3.5	-13.9	.
COc1ccc(C2C3=C(CCCC3=O)Nc3nc(SCc4ccccc4)nn32)cc1OC (stereo unspecified)	i	i	5.6	6.1	i
COC(=O)c1cccc(NC(=O)CSc2nnc(COc3ccccc3)n2C)c1	i	i	-4.6	-7.0	i
CC(=O)NC(C)c1nc2ccccc2n1Cc1ccccc1F (stereo unspecified)	.	.	3.4	1.1	.
CCN1CCCC1CNC(=O)c1cc2c(C)nc3ccccc3c2o1 (stereo unspecified)	.	.	3.5	1.9	.
Cc1cc(=O)n2nc(N3CCC(C(=O)NCCC4=CCCCC4)CC3)sc2n1	.	.	-5.7	-1.8	.
CCc1ccc(NC(=O)c2cc(C)on2)cc1	.	.	-1.5	-2.2	.
COc1cccc(OCC(O)CN2CC(C)CC(C)C2)c1 (stereo unspecified)	.	.	-0.3	-3.5	.
Cc1cc2cc(CN(CCCN3CCOCC3)C(=O)NC3CCCCC3)c(=O)[nH]c2cc1C	79.8	i	3.3	1.0	i
Cc1ccc(N(C(C)C(=O)O)S(=O)(=O)c2c(C)[nH]c(=O)[nH]c2=O)cc1 (stereo unspecified)	.	.	-7.6	0.9	.
O=C(Cc1c(C(=O)O)[nH]c2ccc(Cl)cc12)Nc1ccc2c(c1)OCCO2	.	.	0.6	-7.7	.
Cc1sc2ncn(CC(=O)NCCCC(=O)N3CCN(c4ncccn4)CC3)c(=O)c2c1C	.	.	4.2	-0.6	.
Cc1ccc2c(c1)N(CCC(=O)NCC1COc3ccccc3O1)C(=O)CO2 (stereo unspecified)	.	.	-2.3	-3.4	.
CC(C)c1cc(C(=O)Nc2ccc3c(c2)OCO3)no1	.	.	-1.1	2.3	.
COc1ccc(N2C(=O)C3CCCN3C2c2ccc(C)cc2)cc1Cl (stereo unspecified)	.	.	-0.4	-3.3	.
CC(=O)c1ccc(N2CCN(C(=O)CCS(=O)(=O)c3ccc(C)cc3)CC2)cc1	.	.	-3.1	-5.4	.
Cc1nn(Cc2ccc(Cl)cc2Cl)c(C)c1NC(=O)c1nc2n(n1)C(C(F)F)CC(C)N2 (stereo unspecified)	.	.	-5.8	2.2	.
Cc1ccc2nc3n(c(=O)c2c1)CCC3	.	.	-3.4	-6.0	.
COc1ccc(Cl)cc1Nc1nc(C)cc(=O)[nH]1	i	i	2.8	-7.7	i
Cc1cccc(-n2ncc3c(NCCCO)ncnc32)c1	i	i	-4.1	-3.7	i
COC(=O)Nc1ccc(S(=O)(=O)N2CCN(c3ccc(F)cc3)CC2)cc1	i	i	-3.8	-11.0	i
O=C(O)c1cc(S(=O)(=O)Nc2ccc3c(c2)OCCO3)c(Cl)cc1Cl	.	.	7.1	3.0	.
CC(C)(Oc1ccc(Cl)cc1)C(=O)NC1CCSC1=O (stereo unspecified)	i	i	0.9	1.5	i
O=c1[nH]c2ccc(S(=O)(=O)N3CCN(Cc4ccccc4)CC3)cc2[nH]c1=O	.	.	4.6	-4.3	.
Cc1ccc(NC(=O)/C(CN(C)C)=N\O)cc1	.	.	-1.9	2.3	.
O=C1C(C23CC4CC(CC(C4)C2)C3)C(=O)N(c2ccccc2)N1c1ccccc1	.	.	1.0	73.1*	.
CCN(CC)S(=O)(=O)c1ccc(C2CNC(=O)C2)cc1 (stereo unspecified)	.	.	-11.6	-6.0	.
COc1ccc(NC(=O)CSc2nnc(-c3ccccc3C)n2C)cc1	i	i	-8.5	-11.8	i
CC(C)(C)c1nnc(NC(=O)C2CCN(c3ncccn3)CC2)s1	i	i	-5.7	-3.5	i
CC(=O)Nc1cc2c(nc1C)nc(C)n2Cc1ccc(Br)cc1	i	i	-4.7	-3.3	i
CCOc1ccc(OCC)c(NC(=O)C2CCCN(S(=O)(=O)c3cnc[nH]3)C2)c1 (stereo unspecified)	.	.	2.2	6.2	.
O=C(CSc1nnc(Cc2cc(=O)[nH]c(=O)[nH]2)n1-c1ccc(Cl)cc1)NC1CCCC1	.	.	1.0	-0.8	.
COc1ccc(C2C(C(=O)c3ccc(C)o3)=C(O)C(=O)N2c2cc(C)on2)cc1OC (stereo unspecified)	.	.	-3.9	-7.6	.
CCOc1ccccc1NC(=O)C1CCCN(S(=O)(=O)c2c(C)[nH]c(=O)[nH]c2=O)C1 (stereo unspecified)	.	.	3.5	-0.9	.
C=CCN=C1SCC(=O)N1S(=O)(=O)c1ccc(C)cc1	i	i	-4.9	-7.6	i
COc1ccc(NC(=O)NCCN2CCN(c3cccc(Cl)c3)CC2)cc1	.	.	3.4	-0.6	.
CC(=O)c1cccc(NS(=O)(=O)c2c(C)n[nH]c2C)c1	.	.	10.5	0.8	.
CCCc1nn(CCc2ccccn2)c(N)c1CC	i	i	11.5	-2.0	i
CCOc1ccccc1NC(=O)CSc1c(C)n[nH]c1C	i	i	1.0	2.6	i
CCC1CCCN1Cn1cnc2c([nH]c3ccc(OC)cc32)c1=O (stereo unspecified)	i	i	3.5	-2.0	i
Cc1c(NC(=O)c2cc(-c3ccco3)on2)c(=O)n(-c2ccccc2)n1C	.	.	2.5	1.7	.
N#Cc1ccccc1Cn1c(=O)n(CCC(=O)NCc2ccco2)c(=O)c2ccccc21	.	.	-4.7	6.3	.

# The final 2 entries of the part above come first, to join the parts:
Compound	VCAM-1 inhibition	VCAM-1 up imaging	FPRL1 ligand	FPR ligand	VCAM-1 down imaging
Cc1c(NC(=O)c2cc(-c3ccco3)on2)c(=O)n(-c2ccccc2)n1C	.	.	2.5	1.7	.
N#Cc1ccccc1Cn1c(=O)n(CCC(=O)NCc2ccco2)c(=O)c2ccccc21	.	.	-4.7	6.3	.
O=C(Cn1ccc2ccccc2c1=O)NCCC(=O)NC1CCN(Cc2ccccc2)CC1	i	i	2.5	-4.3	i
COc1cc(C(=O)Nc2cc(-c3ccccc3)[nH]n2)cc(OC)c1OC	i	i	-1.5	3.8	i
CCOC(=O)Cn1nnnc1CN(Cc1ccc(OC)cc1)Cc1cc2cc(C)ccc2[nH]c1=O	i	i	2.3	-10.1	i
CCCOc1cccc(C(=O)Nc2cc(NC(=O)c3ccco3)ccc2OC)c1	i	i	-5.1	-8.4	i
Cc1nnc(NCc2n[nH]c(=O)c3ccccc23)c2ccccc12	i	i	0.0	7.9	i
CCN(Cc1nc2ccccc2c(=O)[nH]1)Cc1nc2cc(OC)c(OC)cc2c(=O)[nH]1	i	i	3.5	-5.2	i
CC(C)OC(=O)c1nnn(-c2nonc2N)c1CSc1ccccn1	.	.	-10.1	-5.7	.
CN1CCN(c2nc(-c3ccncc3)nc3ccccc23)CC1	i	i	-0.1	3.5	i
O=C(O)C1C2CCC(O2)C1C(=O)Nc1cccc(F)c1 (stereo unspecified)	i	i	-7.2	-3.0	i
Nc1ccc(Sc2nnnn2-c2ccccc2)c(Cl)c1	i	i	1.1	-4.3	i
CCOC(=O)c1cccc(NC(=O)CCn2nnc3ccccc32)c1	i	i	7.0	6.2	i
COc1ccccc1N1CCN(C(=O)c2ccc3nc(-c4ccco4)c(-c4ccco4)nc3c2)CC1	i	i	4.3	2.9	i
O=C(CCCCCn1c(=S)[nH]c2cc3c(cc2c1=O)OCO3)N1CCN(C(=O)c2ccco2)CC1	.	.	2.3	-5.9	.
COc1ccc(C(=O)N2CCOCC2)cc1Br	i	i	9.6	-13.1	i
CCN(CC)S(=O)(=O)c1ccc2c(c1)c(=O)c(C(=O)NCCN(C)CCc1ccccc1)cn2C	.	.	0.3	-6.7	.
CC(C)C(NCc1c(Cl)cccc1Cl)C(=O)O (stereo unspecified)	.	.	-0.1	-4.0	.
O=C(Cn1c(S(=O)(=O)Cc2ccccc2)nc2ccccc21)N1CCCCC1	.	.	-2.9	-4.9	.
O=C(NCC1COc2ccccc2O1)C1CCN(S(=O)(=O)c2cccc3nsnc23)CC1 (stereo unspecified)	.	.	-0.9	0.7	.
COc1ccc(S(=O)(=O)n2nc(OC(=O)C3CCCCC3)cc2N)cc1	.	.	-0.1	1.1	.
CCC(=O)Oc1ccc2c(C)cc(=O)oc2c1C	i	i	-2.3	-0.7	i
COc1ccccc1NC1=C(C)C(=O)CC1	i	i	-2.9	1.0	i
Cc1c(C(=O)N2CCN(c3ccccc3F)CC2)sc2ncn(CC(=O)N3CCOCC3)c(=O)c12	.	.	-8.1	9.4	.
CN1CCN(C(=O)c2cc(-c3cccc(Cl)c3)on2)CC1	.	.	-1.4	1.4	.
O=C(CCn1cccc1)NCc1ccc2c(c1)OCO2	.	.	-2.1	-0.2	.
Cc1ccc(N(C(C)C(=O)O)S(=O)(=O)c2c(C)n[nH]c2C)cc1 (stereo unspecified)	.	.	2.8	10.8	.

# Rewritten as labelled records: part of the list above
CC(C)OC(=O)c1nnn(-c2nonc2N)c1CSc1ccccn1
  VCAM-1 inhibition: .
  VCAM-1 up imaging: .
  FPRL1 ligand: -10.1
  FPR ligand: -5.7
  VCAM-1 down imaging: .

O=C(Cn1ccc2ccccc2c1=O)NCCC(=O)NC1CCN(Cc2ccccc2)CC1
  VCAM-1 inhibition: i
  VCAM-1 up imaging: i
  FPRL1 ligand: 2.5
  FPR ligand: -4.3
  VCAM-1 down imaging: i

# (next part)
Compound	VCAM-1 inhibition	VCAM-1 up imaging	FPRL1 ligand	FPR ligand	VCAM-1 down imaging
CN(CCc1ccccn1)C(=O)CN(C)S(=O)(=O)c1ccc2c(c1)c(=O)n(C)c(=O)n2C	.	.	-1.3	-1.9	.
CC(C)[C@H](NC(=O)OC(C)(C)C)c1nnc(SCc2cccc(F)c2)o1	i	i	-4.6	2.3	i
COC(=O)c1ccc2c(=O)sc(N3CCC(C(N)=O)CC3)nc2c1	.	.	-5.8	-5.3	.
COc1ccccc1N1C(=O)c2ccccc2NC1c1ccncc1 (stereo unspecified)	i	i	8.5	0.4	i
COc1ccc(Cc2nnc(-c3cccc(C)c3)o2)cc1OC	.	.	-2.5	-2.0	.
Clc1ccc(SCCn2ccnc2)cc1	i	i	13.2	-5.2	i
CCOC(=O)C(CC)Sc1nc2c(c(=O)[nH]c(=O)n2C)n1C/C=C(/C)Cl (stereo unspecified)	i	i	-4.4	-1.8	i
CCOC(=O)c1[nH]c(C)c(C(=O)N2CCN(c3ccccc3)CC2)c1C	.	.	-3.1	2.8	.
Cc1cc(S(=O)(=O)NCCc2ccccc2)c(C)s1	.	.	-1.5	-4.8	.
O=C1CCc2cc(S(=O)(=O)N3CCC(C(=O)NCc4ccccn4)CC3)ccc2N1	i	i	6.2	5.0	i
O=C(NCc1cccnc1)c1cn(CCc2ccccc2)nn1	i	i	4.3	0.7	i
Cc1cc(Nc2ccccc2)n(CCC#N)n1	i	i	9.1	7.9	i
Cc1ccc(C2C=C(c3ccccc3OC(F)F)Nc3ncnn32)cc1 (stereo unspecified)	.	.	7.3	15.2	.
CN(C)c1ccc(NC(=O)CN2CCN(S(=O)(=O)c3cc(Cl)ccc3Cl)CC2)cc1	.	.	5.2	-4.7	.
O=C(CCn1nc(-c2ccc(Cl)cc2)ccc1=O)NCc1ccccn1	.	.	-7.5	0.7	.
CCOC(=O)c1[nH]c(C)c(C(=O)N2CCN(c3ccc(F)cc3)CC2)c1C	i	i	1.0	-0.3	i
